Assay outcomes: PubChem BioAssay, several laboratories
Calb FLC: affects C. albicans growth with fluconazole | C. albicans CaCi-2 (fluconazole-resistant clinical isolate) + fluconazole, Alamar Blue growth, 48 h | hit rate 0.57% among 300,000 | growth inhibition, % (no concentration beside the values) | AID 1979;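 active = most replicates above 75%; inconclusive = exactly half above 75%; inactive = most below 75%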;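 note: all wells also contain fluconazole at 8 µg/ml as a sub-toxic cotreatment; 0% = median of DMSO wells and 100% = median of geldanamycin control wells; wells of about 8 µL received 7.5 nL stock; the first replicate is given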
LANA-H2A inh: blocks KSHV LANA binding to histone H2A/H2B; cell-free LANA-H2A/H2B peptide, fluorescence polarization; Q9QR71; AID 2629; inhibition, % (test concentration not listed); hit rate 0.6% among 320,000; in the data active = inhibition mostly above about 10%, no sharp cut-off; inactive = mostly below about 6.7%;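 note: stock transfer was 7.5 nL into about 10 µL; 0% = median of vehicle wells and 100% = median of positive control wells; one replicate is shown; the record names a cut of 25% in any replicate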
Vif A3G: HIV-1 Vif–A3G interaction blockers – biochemical, TR-FRET, GST-Vif 1-94, biotin-A3G peptide, dose response retest, primary screen (AID 1117319); TR-FRET GST-Vif / biotin-A3G peptide binding; higher % means a stronger effect; test concentration not given here; strong numbers were not always called active; inhibition, %; hits with a dose series show IC50 in µM; hit rate 0.57% among 260,000;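 active = above the screen mean plus three standard deviations and confirmed in dose response; inconclusive = results disagree or hit not tested in dose response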;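 note: Vif residues 1-94 fused to GST binding biotinylated APOBEC3G peptide 110-148; 0% = full assay without inhibitor and 100% = GST in place of GST-Vif; retest series ran down from 100 µM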
RanGTP-Impb inh: inhibitors of RanGTP-importin-beta interaction, primary screen, biochemical, FRET, CFP-Ran, YFP-importin-beta, homogeneous; cell-free CFP-Ran/YFP-importin-beta FRET ratio; hit rate 1.1% among 300,000; AID 2216; inhibition, % (test concentration not listed);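 active = most replicates above 15%; inconclusive = exactly half above 15%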;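 note: 0% = DMSO wells and 100% = Ran loaded with GDP instead of GTP; wells of about 40 µL received 100 nL stock; the first replicate is given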
Beta2AR agonist: activates human beta-2 adrenergic receptor causing internalization. P07550. Am2.2-beta2AR cells, FAP receptor internalization, flow cytometry; reference of the scale not given here. response, % (test concentration not listed). hit rate 0.43% among 340,000;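 active = response above a set limit, near 3 SD of response in nonfluorescent compounds, cut at about 42% in these data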;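 note: stock transfer was 100 nL into about 11 µL; a reference agonist was the positive control; negative values mostly stem from fluorescent compounds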
Target sequence (P07550 whole entry, looked up): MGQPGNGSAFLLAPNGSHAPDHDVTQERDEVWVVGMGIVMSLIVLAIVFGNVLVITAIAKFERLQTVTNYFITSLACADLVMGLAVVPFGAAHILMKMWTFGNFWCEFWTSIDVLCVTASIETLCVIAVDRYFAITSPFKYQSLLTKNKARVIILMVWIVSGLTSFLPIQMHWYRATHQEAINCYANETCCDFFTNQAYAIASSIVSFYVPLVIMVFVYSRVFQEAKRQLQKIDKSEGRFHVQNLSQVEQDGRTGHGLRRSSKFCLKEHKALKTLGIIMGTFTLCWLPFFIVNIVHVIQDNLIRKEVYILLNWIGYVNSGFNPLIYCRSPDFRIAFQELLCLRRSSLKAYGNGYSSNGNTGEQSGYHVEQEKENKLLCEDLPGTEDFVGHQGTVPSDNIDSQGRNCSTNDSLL
ALR inh: blocks human ALR sulfhydryl oxidase activity; P55789; purified ALR, DTT oxidation, H2O2 HRP-luminol luminescence; inhibition, % (no concentration beside the values); hit rate 3.8% among 290,000; AID 485317;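 active = mean and each replicate at 75% or more; inconclusive = only one of the two met; inactive = neither met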;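 note: stock transfer was 7.5 nL into about 7.5 µL; 0% = neutral wells and 100% = wells with inactivated enzyme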
Target sequence (P55789 whole entry, looked up): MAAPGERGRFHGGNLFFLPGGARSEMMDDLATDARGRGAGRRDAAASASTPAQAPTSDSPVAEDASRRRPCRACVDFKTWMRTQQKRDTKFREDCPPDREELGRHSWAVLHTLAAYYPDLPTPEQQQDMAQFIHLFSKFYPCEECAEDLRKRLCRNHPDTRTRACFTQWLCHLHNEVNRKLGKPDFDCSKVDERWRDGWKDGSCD
HNF4A DNA FP: change in binding of human HNF4 alpha to DNA. P41235. HNF4a-FITC DNA binding, fluorescence polarization, 1 h. activity change, % at 10 µM. hit rate 0.3% among 360,000. AID 1224865; in the data active = activity change above about 30%, passing the limit was not always enough;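 note: controls were the assay level and a saturating level of protein; the project sought stronger binding though the title names inhibitors; some compounds called inactive have numbers as strong as hits; positive values seem to mean higher polarization but the record does not say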
Target sequence (P41235 whole entry, looked up): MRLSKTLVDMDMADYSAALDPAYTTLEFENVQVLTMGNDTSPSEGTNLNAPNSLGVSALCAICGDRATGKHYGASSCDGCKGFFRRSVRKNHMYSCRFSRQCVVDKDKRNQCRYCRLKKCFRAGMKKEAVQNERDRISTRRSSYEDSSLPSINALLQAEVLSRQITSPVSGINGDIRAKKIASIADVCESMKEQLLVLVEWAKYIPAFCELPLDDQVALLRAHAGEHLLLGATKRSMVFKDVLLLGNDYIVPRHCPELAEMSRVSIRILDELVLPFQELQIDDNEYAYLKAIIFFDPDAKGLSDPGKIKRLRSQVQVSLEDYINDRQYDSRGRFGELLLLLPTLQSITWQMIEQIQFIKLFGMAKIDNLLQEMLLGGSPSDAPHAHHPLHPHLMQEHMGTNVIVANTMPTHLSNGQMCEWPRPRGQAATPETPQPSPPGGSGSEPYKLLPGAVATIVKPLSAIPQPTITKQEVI
Numbers without * were called inactive; ? = inconclusive; nt = no result given; & = joins results of further samples. Outcome played no part in choosing rows, and some 6.3% of all compounds hit somewhere here.

SMILES	Calb FLC	LANA-H2A inh	Vif A3G	RanGTP-Impb inh	Beta2AR agonist	ALR inh	HNF4A DNA FP
O=C(O)c1ccccc1C(=O)NC1CCCCNC1=O (stereo not given)	-3	-2.6	6%	-0.7	-4	nt	2.4
CCOC(=O)c1nn(-c2ccccc2)cc1O	-12	-3.9	20%	-0.2	3	0	-2.6
COc1ccc(OCCOc2ccccc2[N+](=O)[O-])cc1	8	-1.6	nt	5.0	1	-6	3.8
Cc1ccc(S(=O)(=O)N2CCOCC2)cc1NC(=O)COC(=O)C1=COCCO1	7	-3.9	-4%	2.3	8	nt	-2.9
Cc1csc(=O)n1CC(=O)OCC(=O)Nc1cc([N+](=O)[O-])ccc1Cl	-6	2.3	2%	2.5	-4	-4	0.3
S=C1NC2(CCCCC2)N=C1c1ccccc1	9	3.9	-12%	1.8	-3	10	0.4
CCC/C(=C1/c2ccccc2C(=O)N1c1ccccc1)c1ccc2[nH]ccc2c1	nt	-10	nt	nt	-7	-1	-2.3
O=C(Cn1cnc([N+](=O)[O-])n1)N/N=C/c1cccc2ccccc12	0	5.9	30%	-1.6	1	-24	1.3
CC(C)c1ccc(/C=C/C(=O)N2CCc3ccccc3C2)cc1	-7	1.8	18µM*	-1.4	8	4	-2.5
O=C(OCn1nnc2ccccc2c1=O)c1ccc(N2CCOCC2)c([N+](=O)[O-])c1	-5	1.2	0%	-0.7	3	43	4.2
O=c1cc(CN2CC(O)Cc3ccc4ccccc4c32)nc2sccn12 (stereo not given)	13	-2.3	nt	0.8	-2	56	1.5
CCNc1nc(NCC)n2c(SCC(=O)O)nnc2n1	-2	1.8	?	-0.8	3	-20	0.0
Cc1cc(S(=O)(=O)N2CC(=O)N(CCc3ccccc3)C(=O)C2)ccc1F	-3	5.0	4%	6.3	1	-2	-1.5
Cc1cc2nc(-c3ccc[nH]c3=O)n(Cc3ccc(F)cc3)c2cc1C	-3	4.7	-8%	1.4	1	8	5.3
CCOC(=O)C1CCCN(C(=O)COc2ccccc2F)C1 (stereo not given)	-5	-1.0	3%	?	-3	-6	-3.3
Cc1c(C(=O)N2CCC(C)CC2)cccc1[N+](=O)[O-]	-12	-2.9	nt	0.2	-3	nt	-1.9
COc1ccc(C(=O)N/C(=C\c2ccc3c(c2)OCO3)C(=O)Nc2ccc(C(=O)O)cc2)cc1	20	0.0	2%	-0.7	-1	-3	-3.1
Cc1ccc(S(=O)(=O)N(C)C)cc1NC(=O)COC(=O)CCC1CCCCC1	2	2.0	-10%	-3.5	2	nt	2.6
O=C(NCCc1ccccc1Cl)C1CCN(S(=O)(=O)c2cccs2)CC1	25	2.8	-3%	5.7	-6	4	-3.4
Cc1ccc(C(=O)OCC(=O)c2cc(C)n(CC3CCCO3)c2C)cc1 (stereo not given)	-1	0.3	0%	-0.2	-4	17	1.0
CCOC(=O)c1ccc(Oc2nc(NC)nc(OC)n2)cc1	12	3.4	21%	0.7	6	-8	0.6
Cc1cc2c(c(=O)n1Cc1cccnc1)C(c1ccc(F)cc1)C(C#N)=C(N)O2 (stereo not given)	-4	12	-3%	-0.7	-1	7	2.0
Cc1ccc2[nH]c(=O)c(CN(CC3CCCO3)C(=S)NCc3ccco3)cc2c1 (stereo not given)	-1	3.3	-4%	-1.5	-9	-1	5.4
CC(=O)c1sc(NC(=O)c2cnc(Cl)c(Cl)c2)nc1C	2	3.8	nt	-1.2	10	6	10
Cc1ccc2oc(C(=O)N3CCN(Cc4ncccc4C)CC3)c(C)c2c1	6	0.3	nt	0.2	-4	0	-2.9
COCCOCC(O)CN1CCN(c2ccccc2)CC1 (stereo not given)	4	-3.6	1%	-3.2	-3	42	2.8
O=C(C1CC1)N1CCC(c2nc(-c3ccc(S(=O)(=O)N4CCCC4)cc3)no2)CC1	-12	-2.2	0%	2.9	-2	-2	0.8
CC(C)(C)NC(=O)NC(=O)CN1CCN(c2ccc(O)cc2)CC1	6	3.0	nt	2.0	0	94*	-3.0
COc1cccc(CNC(=O)C2CCN(S(=O)(=O)N3CCCCC3)CC2)c1	21	10	-4%	-0.4	-7	-1	2.0
Cc1ccc(N(C(=O)CS(=O)CC(=O)Nc2ccc(F)cc2)C(C(=O)NC2CCCCC2)c2ccco2)cc1 (stereo not given)	0	3.9	nt	0.2	-4	-4	-0.3
CC(NC(=O)C1CCCN(S(=O)(=O)c2cnc[nH]2)C1)c1ccccc1 (stereo not given)	-3	-0.5	1%	-1.1	13	-30	-4.5
OCCC1CN(Cc2ccc3c(c2)CCO3)CCN1C1CCCC1 (stereo not given)	-14	-2.9	-9%	-2.2	-4	-2	-4.3
COc1ccc(-c2nc3ncccn3c2Br)cc1	-11	-1.0	0%	-0.4	-30	-17	-0.5
O=C(COc1ccccc1)NNC1=NS(=O)(=O)c2ccccc21	18	1.0	18%	-1.6	-1	-2	2.0
O=C(COc1cccc2cccnc12)Nc1nccs1	30	-2.2	2%	-1.3	3	-21	-2.8
O=C(NCc1ccc2c(c1)OCO2)C(=O)NCC1OCCN1S(=O)(=O)c1ccc(Br)cc1 (stereo not given)	-11	4.6	nt	?	-3	-13	-1.7
COc1ccccc1Nc1nc(N)nc(CSCCO)n1	-3	-4.9	?	5.9	2	-7	-5.2
COc1ccc(-c2ccc(-c3nnc(Cc4ccc(OC)c(OC)c4)o3)cc2)cc1	3	-1.3	-1%	-2.7	1	-6	-2.5
CCN(c1ccccc1)S(=O)(=O)c1cc(C(=O)Nc2ccccc2Cl)ccc1F	-1	-4.1	nt	-1.5	25	0	-0.2
NC(=O)c1cnn2c1NC(c1ccc(F)cc1)CC2C(F)(F)F (stereo not given)	-3	-5.8	0%	2.4	-5	3	0.1
CCOC(=O)c1c(C)c2c(n1C)CCC/C2=N\O	nt	0.6	-2%	nt	-5	nt	0.3
CCCNC(=O)CN1C(=O)NC(Cc2c[nH]c3ccccc23)C1=O (stereo not given)	5	-0.1	-4%	5.6	-8	2	0.9
O=C(CCS(=O)(=O)Cc1ccc(Cl)cc1)NCCCN1CCN(c2ccccc2F)CC1	5	-0.5	?	-2.7	-3	4	-0.1
CC(Sc1ncnc2sc(-c3ccccc3)cc12)C(=O)N1CCNC1=O (stereo not given)	nt	-9.5	-3%	nt	-2	0	-2.3
CCC1SC(N)=NC1=O (stereo not given)	-2	1.8	-4%	0.2	3	1	-1.0
CC1=C(C(=O)Nc2cccnc2)C(c2ccncc2)n2nnnc2N1 (stereo not given)	-2	1.9	-2%&1%	-0.1	1	2	3.8
COc1ccc(CCNC(=O)c2nnc(CS(=O)(=O)c3ccccc3)o2)cc1OC	4	-1.7	nt	5.6	2	-2	1.6
O=C(N=C1SC2CS(=O)(=O)CC2N1Cc1ccc(Cl)cc1)C1CC1 (stereo not given)	10	0.4	0%	-0.6	-2	1	-2.6
CCOC(=O)c1ccc(NC=C2C(=O)OC3(CCCCC3)OC2=O)cc1	-8	1.4	-4%	-3.1	-4	2	0.3
COc1cc(/C=N/NC(=O)c2cn(-c3cccc(C)n3)cn2)ccc1O	-6	-1.4	-5%	-0.8	0	nt	-2.3
Following part.
SMILES	Calb FLC	LANA-H2A inh	Vif A3G	RanGTP-Impb inh	Beta2AR agonist	ALR inh	HNF4A DNA FP
COc1cc(/C=N/S(=O)(=O)c2ccccc2)cc(OC)c1O	-3	4.0	0%	2.5	-1	23	1.1
O=C(O)/C=C/c1cn(-c2ccccc2)nc1-c1cc2ccccc2oc1=O	6	3.9	nt	-4.8	-4	54	-0.5
CCc1ccc(Cn2nnc(C(=O)NCc3ccccc3OC)c2N)cc1	-1	-0.5	3%	0.2	6	-13	7.5
O=C1CC(c2ccccc2)CC(=O)C1Sc1ccc(Cl)cc1 (stereo not given)	-1	-0.9	?	-2.0	-5	48	-2.3
CC1=NN(c2ccccc2)C(=O)C1C(=O)c1ccc(Cl)cc1 (stereo not given)	26	1.6	1%	5.3	-1	16	6.7
C/C(=N\NC(=O)C(N)=O)c1ccc(NC(=O)c2cccs2)cc1	-4	-3.3	-5%	-2.3	0	-4	0.3
CCS(=O)(=O)N1Cc2ccccc2CC1C(=O)Nc1nc2c(C)cccc2s1 (stereo not given)	-4	3.0	15%	1.2	0	0	0.4
Cc1cccc(C)c1OCC(=O)NC1CC1	13	-18	nt	0.9	-4	-6	-4.3
Cc1ccc(S(=O)(=O)Nc2ccccc2CNc2ccc(Br)cn2)cc1	41	-0.3	0%	0.6	1	-3	-1.2
CC(C)N(Cc1cn[nH]c1-c1ccc(-c2ccccc2)cc1)Cc1nccn1C	-1	-13	3%	-9.0	0	-8	-0.3
Cc1ccc(NC(=O)Cc2nnc(SCC(=O)NC3CCCC3)n2C)cc1	-3	-1.7	nt	4.2	-5	0	-2.1
CCOc1ccc(C(=O)Nc2nc(C)cc(C)n2)cc1[N+](=O)[O-]	8	-3.3	3%	-3.5	-2	6	1.8
Brc1ccccc1OCCOCCOc1cccc2cccnc12	-4	3.0	0%	2.6	-3	-35	1.4
COc1ccc(CCNC(=O)c2[nH]c(C)c(C(C)=O)c2C)cc1OC	-1	-4.4	-8%	-3.6	-5	-3	-0.1
COc1ccc(N(C(=O)c2cnccn2)C(C(=O)NC2CCCCC2)c2ccccc2)cc1 (stereo not given)	-9	-4.1	nt	3.3	5	6	1.2
COc1ccc(OCCn2cncn2)cc1	2	-3.6	-7%	1.7	-1	-2	-2.9
Cc1ccc(NC(=O)COC(=O)Cc2ccc(Br)cc2)cc1S(=O)(=O)N1CCOCC1	nt	-1.2	1%	nt	0	-1	1.8
Cc1ccc(S(=O)(=O)Oc2ccc(N3C(=O)C4C5CCC(C5)C4C3=O)cc2)cc1 (stereo not given)	1	2.9	10%	?	5	0	0.9
O=c1[nH]c(=S)[nH]c2nc(-c3cccs3)cc(C(F)(F)F)c12	0	0.6	-3%	-2.4	4	nt	-4.7
COc1ccc(NC(=O)CN(C)C(=O)C(C)Oc2ccc(Br)cc2)cc1 (stereo not given)	0	1.8	1%	1.9	4	-1	2.1

Look-ups from the list:
Reading of `O=c1[nH]c(=S)[nH]c2nc(-c3cccs3)cc(C(F)(F)F)c12` under RanGTP-Impb inh: -2.4
Reading of `COc1ccc(N(C(=O)c2cnccn2)C(C(=O)NC2CCCCC2)c2ccccc2)cc1` (stereo not given) under ALR inh: 6

Continuation:
SMILES	Calb FLC	LANA-H2A inh	Vif A3G	RanGTP-Impb inh	Beta2AR agonist	ALR inh	HNF4A DNA FP
O=C(Nc1nc2ccccc2s1)c1ccc(F)cc1	-19	-0.9	nt	4.6	-2	-6	-4.0
CCCSc1nc2c(c(=O)n(C)c(=O)n2C)n1Cc1ccc(C)cc1	-15	4.4	-3%	0.8	-3	-5	-0.1
O=C(Cc1ccc2c(c1)OCCO2)Nc1ccc(Cl)c(S(=O)(=O)N2CCOCC2)c1	nt	nt	-6%	nt	1	nt	0.1
Cc1oc(-c2ccccc2Cl)nc1CN1CCCN(C(=O)c2ccco2)CC1	-6	1.3	nt	-1.6	-3	20	0.8
Oc1c(Br)cc(/C=N/NC(=S)NCc2ccco2)cc1Br	-1	3.7	0%	-0.3	8	89*	-0.6
O=C(c1ccccc1)c1ccc(-n2cnnc2)c([N+](=O)[O-])c1	-4	1.1	nt	2.9	-1	-109	-0.2
Cc1ccc(S(=O)(=O)N2CCOCC2)cc1C(=O)Nc1ccc(N2CCCCCC2)cc1	nt	nt	5%	nt	11	nt	-0.9
Cc1ccc(NC(=O)c2cnc(SCC(=O)NCC3CCCO3)n(C)c2=O)cc1C (stereo not given)	-1	-4.5	5%	?	4	-5	-4.7
CCc1nc2cc3sc(CC)nc3cc2s1	?	3.3	-16%	2.7	0	-16	0.9
Cc1c(NC(=O)COC(=O)/C=C/c2ccc(Cl)cc2)c(=O)n(-c2ccccc2)n1C	-7	-1.0	-3%	-1.1	-6	-4	2.5
